From PubChem BioAssay
A488 fluor: compound fluoresces in the A488 spectral region; 0.1% of 59,000 active; max dye equivalency, M; compound autofluorescence, A488 spectral region, dye equivalency; hits give high values; active = above 10 nM dye equivalent; inconclusive = 1 to 10 nM; inactive = 1 nM or less; about half of its hits are not listed in these tables;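 note: highest value over a series up to 38 µM; compound alone in buffer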
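Compound autofluorescence was read in 100 mM Tris pH 8.0 after 15 min at room temperature, ex 480 nm/em 540 nm. Intensities were converted to A488 dye-equivalent concentration using an on-plate six-point A488 standard curve.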
AID923: qHTS Assay for Allosteric/Competitive Inhibitors of Caspase-1: Spectroscopic Profiling in AFC Spectral Region; compound fluorescence, AFC spectral region (405/520 nm); almost no hit is shown here; Potency, µM (series often up to 57.5 µM), for inactives: at the top dose fluorescence increase, usual class: activators; 1.1% of 75,000 active; active = well fitted activation curve with a large enough effect; inconclusive = small, poorly fitted or top-dose-only effect;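 note: potency is the fitted concentration of half-maximal effect; 0% is about no effect; scaled to a free AFC standard on each plate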
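Compound autofluorescence profiled at 405 nm ex/520 nm em during kinetic caspase 1 run (50 nM enzyme, 5 uM Ac-WEHD-AFC, HEPES pH 7.5, 10 mM DTT). Titration up to 57 uM; baseline from regression intercept, normalized to AFC standard curve.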
Resorufin autofl: compound fluoresces in the resorufin spectral region. Compound fluorescence, resorufin region 547/598 nm, buffer; hits give high values. AID 588. 0.04% of 59,000 active. max dye-equivalent concentration, M; active = above 10 nM dye equivalent; inconclusive = 1 to 10 nM; inactive = 1 nM or less; a few of its hits are not listed in these tables; note: highest value over a series up to 38 µM
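Tris 100 mM pH 8.0; compound added, 15 min RT; CCD imager read, ex 547 nm/em 598 nm; signal normalized to resorufin standard curve (six concentrations per plate) as dye-equivalent concentration.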
TSHR agonist: TSH receptor (human) agonism; P16473; HEK293-CNG-TSHR cells (CNG channel as cAMP sensor), membrane potential dye, cAMP; Potency, µM (top dose mostly 57.1 µM), for inactives: at the highest dose activation, most hits filed as activators; 0.48% of 73,000 active; active = well fitted activation curve of enough size with the parental cells flat; inconclusive = any curve in the parental cells; inactive = parental cells flat and receptor cells flat or falling; note: potency is the fitted concentration of half-maximal effect; % of control where 0% means no effect; weak receptor curves with flat parental cells got no call and are not listed
Target sequence (P16473 whole entry, looked up): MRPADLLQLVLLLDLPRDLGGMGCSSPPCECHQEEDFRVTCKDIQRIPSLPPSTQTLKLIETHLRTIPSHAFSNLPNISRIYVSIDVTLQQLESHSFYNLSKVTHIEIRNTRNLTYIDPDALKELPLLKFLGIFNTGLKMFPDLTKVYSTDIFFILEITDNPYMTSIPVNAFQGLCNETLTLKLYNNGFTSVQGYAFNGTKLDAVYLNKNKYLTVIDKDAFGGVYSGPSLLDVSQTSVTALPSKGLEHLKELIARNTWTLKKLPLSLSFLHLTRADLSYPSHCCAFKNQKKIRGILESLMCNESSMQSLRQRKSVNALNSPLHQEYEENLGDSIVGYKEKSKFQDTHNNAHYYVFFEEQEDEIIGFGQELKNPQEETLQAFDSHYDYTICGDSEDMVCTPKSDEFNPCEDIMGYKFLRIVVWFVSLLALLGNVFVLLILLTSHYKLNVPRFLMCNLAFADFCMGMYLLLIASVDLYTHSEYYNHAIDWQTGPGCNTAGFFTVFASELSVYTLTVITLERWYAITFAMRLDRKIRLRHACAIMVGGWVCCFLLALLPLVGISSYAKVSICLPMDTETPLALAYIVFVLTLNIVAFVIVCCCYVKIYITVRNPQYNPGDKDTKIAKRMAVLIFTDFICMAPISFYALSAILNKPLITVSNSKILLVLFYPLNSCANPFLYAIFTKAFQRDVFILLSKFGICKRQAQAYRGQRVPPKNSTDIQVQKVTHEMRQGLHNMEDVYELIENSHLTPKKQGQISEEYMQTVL
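HEK 293 cells stably expressing TSHR and a cAMP-gated CNG channel; parental CNG-only cells as counterscreen. Cells preloaded 60 min with membrane potential dye plus 100 uM RO 20-1724, then compound 30 min; fluorescence read at 590 nm.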
A647 autofl: compound fluoresces in the A647 spectral region | Compound fluorescence, A647 channel (570/671 nm), Tris buffer | max dye-equivalent concentration, M | 59,000 tested, under 10 active; active means above 1 µM dye equivalent; inconclusive means 0.1 to 1 µM; inactive means 0.1 µM or less;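 note: values scaled relative to a standard on each plate; highest value over a series up to 38 µM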
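Each compound's intrinsic fluorescence at 570 nm excitation and 671 nm emission is measured across its concentration series in 100 mM Tris, pH 8.0, after 15 min at room temperature, and reported relative to an A647 curve.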
The depositor's hits bear a star; i = inactive; ? = inconclusive; . = no result given; [ ] = another dose, or the depositor's remark. A portion of the library. The share of hits here may be higher or lower than overall.

SMILES	A488 fluor	AID923	Resorufin autofl	TSHR agonist	A647 autofl
O=C(Nc1cc(C(=O)N2CCOCC2)ccc1N1CCCC1)c1cccs1	i	0.7%	i	13%	2e-08
CCc1c(C)sc(NC(=O)c2cc(C3CC3)on2)c1C#N	.	-1.4%	.	21%	.
Cc1cc(N2CCCCC2)n2ncc(-c3ccc(Cl)cc3)c2n1	i	1.2%	i	1%	1e-09
Cc1noc(C)c1-c1nccc(NCc2ccccc2)n1	i	1.7%	i	?	1e-08
CC(C)C(NC(=O)OC(C)(C)C)C(=O)N1CCCC1C(=O)NC(Cc1ccccc1)C(N)=O (stereo not drawn)	i	2.1%	i	6%	1.8e-08
Cc1cc(C)c2c(=O)[nH]n(C3CCOC(C)(C)C3)c2n1 (stereo not drawn)	.	0.2%	.	-6%	.
Cc1nn(-c2ccccc2)c(C)c1C(=O)OCC(=O)NCc1ccco1	i	0.4%	i	6%	2.3e-08
CCc1nnc(NC(=O)c2cccc(S(=O)(=O)N3CCc4ccccc43)c2)s1	i	-1.6%	i	7%	2.3e-09
CCOC(=O)c1c(C)c(C(=O)N2CCCCCC2)c(C)n1C	i	-0.4%	i	?	1.9e-09
CCOC(=O)c1n[nH]c2ccccc12	i	.	i	.	4e-08
O=C(CSc1ccc2nnc(-c3cccnc3)n2n1)N1CCc2ccccc21	.	4.7%	.	-7%	.
Cc1ccc(S(=O)(=O)N(C)CC(=O)N2CCN(c3ccccn3)CC2)cc1	i	-0.7%	i	4%	1e-09
COc1ccc(CN(C)CCc2ccccn2)c(OC)c1OC	i	.	i	.	1e-09
COc1ccc2oc(=O)cc(C)c2c1	i	0.5%	i	0%	2.3e-08
O=C(O)C1C2C=CC3(CN(c4cccc(C(F)(F)F)c4)C(=O)C13)O2 (stereo not drawn)	i	-3.7%	i	4%	4.8e-09
Cc1cnc(C)c(N2CCC(C(=O)NC(C)c3cccs3)CC2)n1 (stereo not drawn)	i	-0.6%	i	0%	5.2e-09
COCCNC(=O)CSCc1c(F)cccc1Cl	i	0.0%	i	-7%	1e-09
FC(F)(F)C12CC(c3ccccc3)=NCCN1CCN2 (stereo not drawn)	i	5.2%	i	?	3.3e-08
Cc1nn(-c2ccccc2)c(=S)n1-c1ccccc1	i	-0.3%	i	-1%	1.5e-08
Nc1nc(N)c(-c2cccc(C(F)(F)F)c2)c(Cc2cccc(C(F)(F)F)c2)n1	i	-0.9%[11.5 µM]	i	0%[11.4 µM]	1.3e-08
CC(=O)c1ccc(Oc2ncnc3sccc23)c(CN2CCOCC2)c1	i	1.0%	i	6%	5.6e-08
COCCNS(=O)(=O)c1ccc2c(c1)oc(=O)c1cc(S(=O)(=O)NCCOC)ccc12	i	0.4%	i	3%	3.1e-08
Fc1ccc(F)c(CN2CCN(c3ncccn3)CC2)c1	i	-2.6%	i	-1%	3.7e-09
CCC1CCCCN1C(=O)CSc1nnc(-c2ccc(OC)cc2)o1 (stereo not drawn)	.	6.2%	.	29%	.
O=C(O)c1cc(-c2ccccc2)c(N2CCOCC2)s1	i	-0.9%	i	12%	4.8e-09

One compound at a time (already shown):
O=C(CSc1ccc2nnc(-c3cccnc3)n2n1)N1CCc2ccccc21 as listed: A488 fluor: .; AID923: 4.7%; Resorufin autofl: .; TSHR agonist: -7%; A647 autofl: .
COc1ccc2oc(=O)cc(C)c2c1 as listed: A488 fluor: i; AID923: 0.5%; Resorufin autofl: i; TSHR agonist: 0%; A647 autofl: 2.3e-08
Cc1cc(N2CCCCC2)n2ncc(-c3ccc(Cl)cc3)c2n1 as listed: A488 fluor: i; AID923: 1.2%; Resorufin autofl: i; TSHR agonist: 1%; A647 autofl: 1e-09

Next part
SMILES	A488 fluor	AID923	Resorufin autofl	TSHR agonist	A647 autofl
O=c1cnc2cnc(Oc3ccccc3)nc2n1C[C@H]1CCCO1	i	4.3%	i	9%	4.3e-09
Nc1nc2c(C(=O)NCc3cccs3)nnn2c2cccc(Cl)c12	i	1.9%[11.5 µM]	i	-4%[11.4 µM]	1.9e-09
O=S(=O)(c1ccccc1S(=O)(=O)N1CCCCC1)N1CCCCC1	i	0.6%	i	?	1.2e-08
CCCn1c2c(c(O)c(C(=O)Nc3ccccc3)c1=O)CCCC2	i	0.4%	i	6%	2.9e-08
CCOC(=O)Nc1ccc2c(c1)nc(CN1CCN(C(C)=O)CC1)n2C	i	-0.9%	i	-7%	6.4e-09
CCN(CC)c1nc(-c2nn[nH]n2)nc(N(CC)CC)n1	i	0.7%	i	3%	2.6e-08
CCCOc1ccc(C(=O)N2CCCc3ccccc32)cc1	i	-0.3%	i	?	1e-09
CC(=O)Nc1ccccc1N(C)S(=O)(=O)c1ccc(C)cc1	i	-1.5%	i	?	3.2e-08
CCCn1c(SCC(N)=O)nc2c(c1=O)C1(CCCC1)Cc1ccccc1-2	i	.	i	.	1e-09
CCCc1cc2c(n1Cc1cc(F)cc(F)c1)C(C)C1CN(C(=O)c3ccccc3)C(C)(C(=O)OC)C21 (stereo not drawn)	.	5.5%	.	?	.
CCC(=O)Nc1nc(C)c(Oc2ccccc2)c(=O)[nH]1	i	.	i	.	8.5e-08
Oc1ccccc1-c1cc(-c2ccccc2Cl)[nH]n1	i	-0.8%	i	-3%	7.6e-09
C[C@]12CC[C@H]3c4ccc(O)cc4CC[C@@H]3[C@H]1C/C(=N/O)[C@H]2O	i	0.5%[11.5 µM]	i	6%[11.4 µM]	1.5e-08
c1coc(C2Nc3cccc4cccc(c34)N2)c1	i	5.6%	i	-27%	1.7e-08
COc1ccc2c(c1)C(C)CC(C)(C)N2C(=O)CSc1ncn[nH]1 (stereo not drawn)	i	-1.6%	i	1%	4.4e-09
CCC(C)NC(=O)C1CCN(S(=O)(=O)CC)CC1 (stereo not drawn)	i	1.6%	i	-5%[11.4 µM]	3.1e-08
CCC(=O)N1CCc2cc(Br)cc(S(=O)(=O)N3CCCCCC3)c21	i	-0.5%	i	3%[11.4 µM]	3.5e-09
FC(F)(F)c1cccc(-c2ccc(-c3csnn3)o2)c1	i	0.2%	i	0%	5.6e-08
N#CC(C(=O)OC1CCCCC1)c1nc2ccccc2nc1N1CCCCC1 (stereo not drawn)	i	11%	i	?	3.9e-09
O=C(CSc1ncnc2c1oc1ccccc12)Nc1cccc(F)c1	i	-1.9%	i	?	9.7e-09
CCCOC(=O)CN1C(=O)c2ccccc2C1=O	i	1.4%	i	-5%	1e-09
CCSc1nnc(CNc2ccc(F)cc2)n1CC1CCCO1 (stereo not drawn)	i	0.5%	i	-3%	1e-09
COc1ccc(NC(=O)N2CC3(CCN(S(=O)(=O)c4ccccc4)CC3)C2)cc1	i	-1.4%	i	-8%	9.8e-09
Cn1c(NCCCN2CCOCC2)nc2c1c(=O)n(Cc1ccc(Cl)cc1)c(=O)n2C	i	1.0%	i	-8%	1e-09
CS(=O)(=O)c1ccc2nc(NC3(C(F)(F)F)N=C4SCCN4C3=O)sc2c1 (stereo not drawn)	i	0.6%	i	.	2.1e-08

4 entries out of the list, arranged by count of non-hydrogen atoms, rising.
SMILES	A488 fluor	AID923	Resorufin autofl	TSHR agonist	A647 autofl
CCN(CC)c1nc(-c2nn[nH]n2)nc(N(CC)CC)n1	i	0.7%	i	3%	2.6e-08
COc1ccc2c(c1)C(C)CC(C)(C)N2C(=O)CSc1ncn[nH]1 (stereo not drawn)	i	-1.6%	i	1%	4.4e-09
CCOC(=O)Nc1ccc2c(c1)nc(CN1CCN(C(C)=O)CC1)n2C	i	-0.9%	i	-7%	6.4e-09
N#CC(C(=O)OC1CCCCC1)c1nc2ccccc2nc1N1CCCCC1 (stereo not drawn)	i	11%	i	?	3.9e-09

Other records
SMILES	A488 fluor	AID923	Resorufin autofl	TSHR agonist	A647 autofl
COc1ccc(C(=O)N2CCN(S(=O)(=O)c3ccc(C)cc3C)CC2)cc1OC	.	3.6%	.	3%	.
Cc1c(OCc2ccc(C(=O)O)o2)ccc2c3c(c(=O)oc12)CCC3	.	2.9%	.	2%[11.4 µM]	.
O=C(c1ccccc1NS(=O)(=O)c1cccs1)N1CCOCC1	i	-1.3%	i	2%	5.1e-08
CC(=O)c1cccc(-n2nnnc2SCC(=O)N2CCCC2)c1	i	1.4%	i	-5%	2.6e-08
Cc1ccc(S(=O)(=O)N(C)CC(=O)NC2CC(C)(C)NC(C)(C)C2)cc1	i	-1.2%	i	1%	3e-09
CCCC(C)C(=O)Nc1ccc2c(c1)OCCO2 (stereo not drawn)	i	-1.6%	i	-1%	1.9e-08
CC[N+]1(C)[C@@H]2CC[C@H]1CC(OC(=O)[C@H]1CC[C@@](C(=O)OC3C[C@H]4CC[C@@H](C3)[N+]4(C)CC)(c3ccccc3)c3ccccc31)C2 (stereo partly drawn)	i	0.1%[25.7 µM]	i	5%[25.6 µM]	2.9e-09
Cc1csc(SCC(=O)Nc2cc(C(C)(C)C)nn2-c2ccccc2)n1	i	0.8%	i	28%	3e-08
Cc1occc1C(=O)NCCCc1ccccc1	.	0.7%	.	8%	.
Cn1c(=O)n(Cc2ccccc2)c(=O)c2c1nc1n2CCS1	i	1.0%	i	4%	1.4e-08
c1ccc(Cn2ncc3c2ncn2c(-c4ccncc4)nnc32)cc1	i	0.3%	i	3%	1e-09
CCCCn1c(=N)n(CC(O)COc2cccc(C)c2)c2ccccc21 (stereo not drawn)	i	-1.2%	i	?	1.5e-08
O=C(c1cc(F)c(F)cc1Cl)N1CCCCC1	.	-1.8%	.	27%[11.4 µM]	.
O=C(c1ccccc1-c1ccccc1)N1CCN(c2ccccn2)CC1	i	-1.2%	i	?	5.4e-09
COc1cc(C(=O)NCCc2cn3ccc(C)cc3n2)cc(OC)c1OC	.	-2.4%	.	-7%	.
O=C(NCc1ccco1)c1ccccc1NS(=O)(=O)c1ccc2c(c1)OCCO2	i	1.4%	i	12%	3.1e-09
COC(=O)c1ccc(NC(=O)C2C3CCC(C3)C2C(=O)O)cc1 (stereo not drawn)	.	1.7%	.	-4%	.
COc1ccc(NC(=O)CCC2CCCC2)cc1OC	i	-0.3%	i	-16%	5.6e-09
COc1ccc(F)cc1CN1CCN(C(=O)CCC(=O)Nc2nnc(C(C)C)s2)CC1	i	-0.2%	i	24%	8.7e-09
N#Cc1ccc(Oc2cccc(C(=O)O)c2)cc1C#N	.	0.1%	.	-2%	.
Cc1ccc(N(C)C)cc1	.	-3.4%	.	?	.
CC1(C)CC(=O)C2=C(C1)N(Cc1cccnc1)C(=O)C2(NC(=O)C1CC1)C(F)(F)F (stereo not drawn)	i	1.2%	i	0%	1e-09
CCCCn1c(NC(C)CC)nc2c1c(=O)[nH]c(=O)n2C (stereo not drawn)	i	0.0%	i	4%	3e-08
Nc1nc(N2CCOCC2)nc2ccccc12	i	0.0%	i	5%	1e-09
CC(C)(C)OC(=O)N1CCOCCOCCN(C(=O)OC(C)(C)C)CCOCCOCC1	i	0.0%	i	0%	3.1e-08
Carrying on.
SMILES	A488 fluor	AID923	Resorufin autofl	TSHR agonist	A647 autofl
CCOc1ccc(C(=O)Nc2ccc3c(c2)OCCO3)cc1OC	i	17%	i	9%	3.2e-09
COc1ccc(C(=O)N2CCN=C2SCc2cccnc2)c(OC)c1	.	2.5%	.	3%	.
Cc1nc(SCCCSc2n[nH]c(C)n2)n[nH]1	i	-1.7%	i	3%	3e-08
CC(=O)N1CCc2cc(S(=O)(=O)NC(CC(C)C)C(=O)Nc3cc(C(=O)O)ccc3C)ccc21 (stereo not drawn)	i	-1.5%	i	-4%	1.9e-09
OC(COc1ccccc1)Cn1cc(Br)cn1 (stereo not drawn)	i	-0.5%	i	-3%	1e-09
Cc1nn(-c2ccccc2)c2c1C1(C(=O)N(C)c3ccccc31)N(c1ccccc1)C(=O)N2 (stereo not drawn)	i	-0.3%	i	?	1.2e-08
Cc1csc(NC(=O)CN(C)S(=O)(=O)c2cccc3cccnc23)n1	.	-0.8%	.	1%	.
O=C(Nc1ccccc1)N1CC2(CCN(C(=O)c3cccc(F)c3)CC2)C1	i	-1.0%	i	?	6.3e-09
